Assay outcomes deposited in PubChem by ICCB-Longwood Screening Facility, Harvard Medical School.
PV pol inh – poliovirus RNA polymerase inhibition; P03300; poliovirus polymerase elongation, fluorescence polarization; active compounds read low; % elongation, % (compound at 16.7 µg/mL); actives 0.66% (n = 150,000); AID 588519; in the data active = % elongation below about 90%; also: some results filed as inactive read as strong as hits
Target sequence (P03300 1749-2209 limits assumed): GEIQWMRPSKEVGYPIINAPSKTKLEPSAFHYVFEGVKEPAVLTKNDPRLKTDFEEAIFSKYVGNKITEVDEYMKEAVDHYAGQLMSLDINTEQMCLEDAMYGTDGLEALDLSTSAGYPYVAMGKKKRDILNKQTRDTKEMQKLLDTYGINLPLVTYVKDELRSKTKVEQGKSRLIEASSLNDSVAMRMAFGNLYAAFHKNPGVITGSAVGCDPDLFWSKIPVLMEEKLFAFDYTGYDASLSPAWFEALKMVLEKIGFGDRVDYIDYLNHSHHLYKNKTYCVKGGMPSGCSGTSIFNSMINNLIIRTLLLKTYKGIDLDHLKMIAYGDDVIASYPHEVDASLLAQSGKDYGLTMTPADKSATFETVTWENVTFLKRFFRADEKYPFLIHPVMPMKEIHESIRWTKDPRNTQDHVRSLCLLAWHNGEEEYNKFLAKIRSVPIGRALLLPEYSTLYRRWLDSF
PV pol inh intensity – second read-out of PV pol inh, no call of its own (marks repeat the call); % elongation; measured here: total intensity read-out; formula for this scale not given here;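 total fluorescence in place of polarization; lower means less elongation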
The depositor's hits bear a star.

smiles,PV pol inh,PV pol inh intensity
CCS(=O)(=O)N1CCc2cc(C(=O)Nc3cccc(NC(C)=O)c3)ccc21,106.0,102.0
COc1ccc(-n2c(=O)c3ccccc3n(CC(=O)Nc3ccccc3OC)c2=O)cc1,109.0,108.0
Cc1ccc(O)c(-c2n[nH]c3c2C(c2ccccc2F)N(Cc2ccco2)C3=O)c1 (stereo not given),108.0,112.0
Cc1ccccc1NC(=O)c1sc2nc(N3CCOCC3)c3c(c2c1N)CC(C)(C)OC3,105.0,106.0
COc1ccc(-c2nc(C)c(CCNC(=O)C(=O)Nc3cc(C)cc(C)c3)s2)cc1OC,105.0,107.0
N#Cc1ccc(C(=O)N2CCN(c3nc4ccc(F)cc4s3)CC2)cc1,108.0,106.0
Cc1cc(OC(C)C(=O)Nc2cccc(-c3nc4ccccc4o3)c2)cc(C)c1Cl (stereo not given),110.0,126.0
CC1=NOC(O)(C(F)(F)F)C1 (stereo not given),101.0,101.0
CCc1ccc(-c2nc3cc(NC(=O)c4ccc(C)c(C)c4)ccc3o2)cc1,108.0,104.0
Cc1ccc(S(=O)(=O)c2[nH]c(-c3ccccc3)nc2SCC(=O)O)cc1,99.0,103.0
Cc1ccc(S(=O)(=O)c2c(Nc3cc(C)ccc3C)sc(C(=O)c3ccc4c(c3)OCO4)c2N)cc1,105.0,99.0
COc1ccc(N2CC(NC(=O)C3CCCC3)CC2=O)cc1OC (stereo not given),107.0,98.0
COc1ccc(OCC(=O)Nc2ccc(-c3nc4cc(C)cc(C)c4o3)cc2)cc1,102.0,104.0
O=c1c2sc3ccccc3c2n(Cc2cccc(C(F)(F)F)c2)c(=O)n1Cc1ccccc1,104.0,106.0
COc1ccc(NC(=O)C(NC(=O)/C=C\c2ccc3c(c2)OCO3)c2ccc(OC)cc2)cc1 (stereo not given),102.0,104.0
COc1ccc(S(=O)(=O)Nc2cccc(-c3ccc(N4CCCCC4)nn3)c2)cc1F,111.0,111.0
Cc1ccc(NC(=O)CSc2nncn3c2cc2sccc23)cc1F,102.0,105.0
Cc1cc(N2CCN(C)CC2)nc2ccc(NC(=O)Nc3ccc(F)cc3)cc12,109.0,114.0
CCOc1ccccc1N(C)C(=O)c1cc(S(=O)(=O)NCCc2ccc(Cl)cc2)ccc1F,112.0,108.0
Cc1ccc(NC(=O)CSc2ncc3c(n2)-c2ccc(Cl)cc2N(C)S3(=O)=O)cc1F,104.0,117.0
COc1cc(OC)cc(C(=O)Nc2ccc(-c3nc4ccccc4s3)cc2C)c1,100.0,102.0
CCOc1cc2[nH]c(=O)n(CCCCC(=O)N3CCN(c4ccccc4OC)CC3)c(=O)c2cc1OCC,106.0,105.0
COc1ccc2cc(CCNS(=O)(=O)c3ccc(C)cc3)c(=O)[nH]c2c1,103.0,114.0
Cc1oc(-c2cccc(Cl)c2)nc1CN1CCCC(C(=O)NCc2ccc(Cl)cc2)C1 (stereo not given),104.0,104.0
O=C(c1ccc2c(c1)N(Cc1ccc(Cl)cc1)C(=O)c1ccccc1S2(=O)=O)N1CCC(Cc2ccccc2)CC1,109.0,112.0

The final 3 compounds of the section before come first, to join the parts:
smiles,PV pol inh,PV pol inh intensity
COc1ccc2cc(CCNS(=O)(=O)c3ccc(C)cc3)c(=O)[nH]c2c1,103.0,114.0
Cc1oc(-c2cccc(Cl)c2)nc1CN1CCCC(C(=O)NCc2ccc(Cl)cc2)C1 (stereo not given),104.0,104.0
O=C(c1ccc2c(c1)N(Cc1ccc(Cl)cc1)C(=O)c1ccccc1S2(=O)=O)N1CCC(Cc2ccccc2)CC1,109.0,112.0
CCN1CCN(c2cc(C)c3cc(NC(=O)c4cccc(Cl)c4)ccc3n2)CC1,103.0,100.0
Cc1ccc(Cl)cc1NS(=O)(=O)c1cc2c3c(c1)CC(=O)N3CCC2,98.0,101.0
CCCN(CCC)c1cc(C)nc2nc(-c3ccc(C(C)(C)C)cc3)nn12,102.0,96.0
Cc1ccc(C)c(NC(=O)C2CCCN(S(=O)(=O)c3ccc4[nH]c(=O)ccc4c3)C2)c1 (stereo not given),115.0,119.0
COc1ccc(-c2cc(C(=O)Oc3ccc(C)cc3)c3cc(C)ccc3n2)cc1,107.0,107.0
O=C(NCC(c1ccc2c(c1)OCO2)N1CCN(c2ccccc2)CC1)C(=O)Nc1ccc(F)cc1 (stereo not given),104.0,111.0
COc1ccc(NC(=O)c2nnn(CC(=O)Nc3ccc(C)c(C)c3)c2N)cc1OC,99.0,89.0
CCOc1ccc(NC(=O)CC2C(=O)N(c3cccc(C)c3)C(=O)N2Cc2cccnc2)cc1 (stereo not given),111.0,113.0
O=C(NCCc1ccc(Cl)cc1)c1ccc2c(c1)N(Cc1cccc(Cl)c1)C(=O)c1ccccc1S2(=O)=O,113.0,109.0
COc1cc(/C=C/c2nc(C#N)c(N3CCCCCC3)o2)cc(OC)c1OC,129.0,139.0
Cc1ccc(-c2noc(CCC(=O)N(C)c3ccccc3F)n2)cc1,101.0,101.0
Cc1ccc(-c2cc(C(=O)Oc3ccc(C#N)cc3)no2)cc1,95.0,98.0
COc1ccc(CNC(=O)CCC(=O)N2CC3CCCN3c3ccccc32)cc1 (stereo not given),107.0,110.0
O=c1cc(N2CCN(c3ccc(F)cc3)CC2)[nH]c(=O)n1-c1ccc(Br)cc1,109.0,99.0
Cc1ccc(CCNC(=O)c2ccc3c(Cl)c4c(nc3c2)CCCC4)cc1,108.0,112.0
CCOC(=O)c1c(C)oc2ncnc(NCCCN3CCN(c4cc(C)ccc4C)CC3)c12,108.0,113.0
O=C(CCc1nc(C2=CCN(Cc3cccc(Cl)c3)CC2)no1)Nc1ccccc1F,107.0,113.0
O=C(CSc1ccc2nc(-c3ccccc3)cn2n1)Nc1ccccc1,87.0*,92.0*
CCc1ccc(CNC(=O)Cc2ccc(NC(=O)N3CCSc4ncccc43)cc2)cc1,110.0,109.0
O=C(NCCc1nc2ccccc2n1Cc1c(F)cccc1Cl)c1ccco1,105.0,106.0
Cc1oc2c(cc(NS(=O)(=O)c3ccc(Cl)cc3)c3ccccc32)c1C(=O)OCc1ccccc1,107.0,111.0
COC(=O)c1scc(-c2ccc(C)cc2)c1S(=O)(=O)Nc1cc(C)ccc1OC,111.0,112.0
Cc1ccc2[nH]c(CSc3nnc(NC(=O)COc4ccc(F)cc4)s3)cc(=O)c2c1,99.0,113.0
COc1ccc(NC(=O)c2noc3c2CSc2ccccc2-3)cc1Cl,114.0,112.0
COc1ccccc1N1CCN(c2ncnc3c2nnn3C)CC1,110.0,86.0
CCS(=O)(=O)c1ncc(Cl)c(C(=O)NCc2ccccc2)n1,116.0,111.0
COC(=O)c1ccc2c(=O)n(CCCCCC(=O)NCCc3ccc(Cl)cc3)c(=O)[nH]c2c1,103.0,109.0
Cc1nn(CCC(=O)Nc2ccccc2Br)c(=O)c2nn(-c3ccccc3)c(C)c12,108.0,110.0
CC(=O)N1CCc2c(sc3c2c(=O)n(-c2ccc(F)cc2)c(=O)n3Cc2ccc(C#N)cc2)C1,108.0,111.0
O=C(O)c1c(-c2ccccc2)oc2ccc(OCc3ccc(Cl)c(Cl)c3)cc12,106.0,108.0
O=C(Cn1c(=O)nc(-c2ccccc2)c2ccccc21)NCc1ccc(F)cc1,108.0,109.0
COc1ccc(OC)c(NC(=O)Cc2c(C(=O)O)[nH]c3ccc(Cl)cc23)c1,103.0,101.0
CCOC(=O)C1CCCN(C(=O)c2ccc3c(c2)sc2nc(-c4cccc(OC)c4)cn23)C1 (stereo not given),105.0,97.0
COc1ccc(NC(=O)C(=O)c2cc(C)n(-c3ccc(C)cc3)c2C)cc1Cl,106.0,112.0
Cc1ccc(C)c(N2CCN(S(=O)(=O)c3ccc(F)c(C(=O)Nc4ccc(Cl)cc4Cl)c3)CC2)c1,108.0,113.0
COC(=O)c1ccc(NC(=O)c2cccc3c2C(=O)N(C2CCCCC2)C3)cc1,114.0,108.0
CCCOc1ccc(CNC(=O)Cn2ncn3c(cc4sc(CC)cc43)c2=O)cc1,107.0,110.0
Cc1cnc2c(c1SCC(=O)NCc1ccccc1Cl)c(=O)n(C)c(=O)n2C,105.0,101.0
COc1ccc(NC(=O)Cn2c(=O)n(-c3ccc(C)c(C)c3)c(=O)c3c(C)c(C)sc32)cc1,104.0,97.0
O=C(NCc1ccc(F)cc1)c1ccc(CSCc2cccc(Cl)c2)o1,102.0,108.0
COc1ccc(C)cc1NC(=O)c1ccc2c(Cl)c3c(nc2c1)CCC3,108.0,108.0
Cn1cnc(S(=O)(=O)N2CCCC(C(=O)NCc3ccccc3)C2)c1 (stereo not given),109.0,114.0
O=C(NC1CCCCC1)/C(=C/c1ccc(Cl)cc1)NC(=O)c1ccccc1,106.0,115.0
COc1cc2c(cc1OC)C(COc1ccc(F)cc1)N(C(=O)Cc1ccc(F)cc1)CC2 (stereo not given),108.0,114.0
Cc1ccc(-c2nc3n(n2)C(c2ccccc2Cl)C=C(c2ccc(Cl)cc2)N3)cc1 (stereo not given),99.0,104.0
COc1ccc(C(CNC(=O)COc2cc(C)cc(C)c2)N2CCOCC2)cc1 (stereo not given),100.0,100.0
Cc1ccc(CN(C(=O)COc2ccccc2[N+](=O)[O-])c2ccccn2)cc1,109.0,106.0
COC(=O)c1nnn(CC(=O)NC(=O)Nc2ccc(F)cc2)c1C(=O)OC,107.0,110.0
Cc1ccc(N2CC(NC(=O)C3CCCC3)CC2=O)cc1 (stereo not given),105.0,105.0
COc1cc(C(=O)NCCc2csc3nc(-c4ccccc4C)nn23)cc(OC)c1OC,102.0,97.0

Single records, as listed above.
CCS(=O)(=O)c1ncc(Cl)c(C(=O)NCc2ccccc2)n1 across the screens: PV pol inh: 116.0; PV pol inh intensity: 111.0
COc1ccc(C(CNC(=O)COc2cc(C)cc(C)c2)N2CCOCC2)cc1 (stereo not given) across the screens: PV pol inh: 100.0; PV pol inh intensity: 100.0
COc1ccc(OC)c(NC(=O)Cc2c(C(=O)O)[nH]c3ccc(Cl)cc23)c1 across the screens: PV pol inh: 103.0; PV pol inh intensity: 101.0

(listing goes on)
smiles,PV pol inh,PV pol inh intensity
Cc1c(C(=O)NCc2ccc(F)cc2)sc2nc3n(c(=O)c12)CCC3,103.0,108.0
CN(c1ccc(Cl)cc1)S(=O)(=O)c1nnc(NC(=O)c2ccco2)s1,113.0,114.0
Cc1ccc(CCNc2nc3ccccc3c3nc(-c4ccccc4)nn23)cc1,109.0,108.0
COC(=O)c1sccc1S(=O)(=O)N(CC(=O)NCc1ccc(F)cc1)c1ccc(C)c(C)c1,109.0,114.0
Cc1ccc(-c2cc(N)n(-c3ccc(C)cc3)n2)cc1,98.0,88.0
CCc1ccc(CN(Cc2ccco2)c2cnc(S(C)(=O)=O)nc2C(=O)Nc2ccccc2Cl)cc1,111.0,99.0
CC(C)COc1ccc(C(=O)N(Cc2ccc(N(C)C)cc2)Cc2ccco2)cc1,105.0,104.0
CCOC(=O)c1cccc(NS(=O)(=O)c2cc(Br)cc3c2N(C(=O)C2CC2)CC3)c1,108.0,105.0
CCOc1cc(-c2ccc(OC(=O)c3ccccc3F)cc2)cc(=O)c2c(C)oc(C)c12,108.0,114.0
CCCCOC(=O)CSc1nnc(-c2ccc(C)cc2)o1,97.0,94.0
CC(=O)c1ccc(NC(=O)CSc2nnc(N)s2)cc1,100.0,105.0
CC(=O)Nc1ccc(NC(=O)c2ccc3c(c2)CCN3S(=O)(=O)c2ccc(Cl)cc2)cc1,96.0,90.0
COCCNC(=O)CN1C(=O)COc2ccc(S(=O)(=O)N3CCOCC3)cc21,103.0,104.0
Cc1ccc2nc(CNC(=O)c3ccccc3)[nH]c2c1,107.0,109.0
CCOC(=O)c1c(NC(=O)c2cc(=O)c3c(C)cc(C)cc3o2)sc2c1CCC2,110.0,111.0
COCCNc1oc(-c2ccc(OC)cc2)nc1C#N,103.0,104.0
Cc1c(NC(=O)c2ccccc2F)cccc1-c1nc2cccnc2s1,110.0,111.0
COc1ccc(OCC2c3cc(OC)c(OC)cc3CCN2C(=O)COc2ccc(Cl)cc2Cl)cc1 (stereo not given),109.0,103.0
CCOc1ccccc1CNC(=O)C1CCCN(c2ncnc3onc(-c4ccc(F)cc4)c23)C1 (stereo not given),105.0,107.0
Cc1ccc(-n2c(-c3ccc(Br)cc3)nc3c(cnn3-c3ccccc3)c2=O)cc1,105.0,104.0
Cc1ccc(-c2cc3nc(-c4ccccc4)cc(C(F)(F)F)n3n2)cc1,102.0,101.0
Cc1nnsc1C(=O)Oc1ccc(Cl)cc1,102.0,104.0
Cc1nc2c3cccnc3nn2c(C)c1CCC(=O)NCc1ccccc1,104.0,104.0
CCCN(CCC)C(=O)Cn1c(=O)n(-c2ccc(Cl)cc2)c(=O)c2c3c(sc21)CCCC3,109.0,109.0
COc1ccc(C)c2sc(N(Cc3cccnc3)C(=O)c3cccs3)nc12,111.0,102.0
COc1ccc(-c2[nH]c(-c3ccccc3)nc2SCC(=O)Nc2ccc3c(c2)OCCO3)cc1,112.0,115.0
Cc1ccc(CNC(=O)CN2C(=O)COc3ccc(S(=O)(=O)Nc4ccccc4)cc32)cc1,105.0,108.0
COc1ccc(CCNC(=O)c2c(O)nc3ccccn3c2=O)cc1,104.0,113.0
COCCc1nn2c(=O)cc(COC(=O)c3ccc(C(C)(C)C)cc3)nc2s1,102.0,103.0
COc1cccc(NC(=O)Cn2c(=O)n(Cc3ccccc3)c(=O)c3c4c(sc32)CN(C(C)=O)CC4)c1,108.0,103.0
Cc1cccc(NC(=O)Cn2nnc(C(=O)NCc3ccco3)c2N)c1,112.0,106.0

A portion of the library (hit frequency here may not be typical).
